Screening data as filed in PubChem BioAssay.
NPYLR7 ag: mosquito NPYLR7 agonism; HEK293T NPYLR7/Galpha15, GCaMP6s calcium fluorescence; activation, % at 10 µM; 270,000 tested, 0.15% active; in the data active = activation above about 40%;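 note: 0% = vehicle and 100% = reference agonist at the receptor; some compounds past the cut are filed as inactive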
NPYLR7 ag max-min: also measured in NPYLR7 ag; calls as there; activation, %; measured here: Max-Min RFU normalised activation; some inactives read as strong as hits;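 span of the calcium signal over five minutes; 0% = vehicle and 100% = native peptide agonist; compound fluorescence can raise it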
* hit, by the source's call. An excerpt. The share of hits here may be higher or lower than overall.

compound: Cc1ccc(C2=NN(C(=O)CN3CCC(Cc4ccccc4)CC3)C(c3ccccc3)C2)cc1C (stereo not drawn)
  NPYLR7 ag: -1 | NPYLR7 ag max-min: 4
compound: COc1ccc(-c2cnc(-c3cccc(CNC(=O)c4cccs4)c3)[nH]2)cc1
  NPYLR7 ag: 3 | NPYLR7 ag max-min: 4
compound: Cc1cccc(N2CCN(S(=O)(=O)CCNC(=O)c3ccco3)CC2)c1
  NPYLR7 ag: 2 | NPYLR7 ag max-min: 7
compound: CC1=NN(c2ccccc2)C(=O)/C1=C/c1cn(-c2ccccc2)nc1-c1ccccc1
  NPYLR7 ag: 1 | NPYLR7 ag max-min: -4
compound: Cc1cc(=O)n(C)cc1NC(=O)COc1c(C)cccc1C
  NPYLR7 ag: 0 | NPYLR7 ag max-min: 0
compound: COc1ccc(-c2cn(-c3ccccc3)nc2C(=O)N2CCNC(=O)C2)cc1OC
  NPYLR7 ag: -6 | NPYLR7 ag max-min: -7
compound: C=CCOCC(O)CN(CCC(C)C)Cc1cccc(OC)c1OC (stereo not drawn)
  NPYLR7 ag: 15 | NPYLR7 ag max-min: 13
compound: COc1ccc(-n2ncc3c2CC(C)(C)CC3NC(=O)CSc2ncccn2)cc1 (stereo not drawn)
  NPYLR7 ag: -4 | NPYLR7 ag max-min: -10
compound: O=C(O)c1c[nH]c2cc3c(cc2c1=O)OCCO3
  NPYLR7 ag: 3 | NPYLR7 ag max-min: 2
compound: CNC(=O)CC(C)N(C)Cc1ccc2c(C)cc(=O)oc2c1 (stereo not drawn)
  NPYLR7 ag: -2 | NPYLR7 ag max-min: -5

compound: NC(=O)c1c(F)cccc1-c1cc(NCc2cccnc2)nc2[nH]ccc12
  NPYLR7 ag: 2 | NPYLR7 ag max-min: 0
compound: Cc1cc2ccccc2n1CCNC(=O)/C=C/c1ccccc1
  NPYLR7 ag: 4 | NPYLR7 ag max-min: 0
compound: O=C(NCC1CCCO1)C(C1CCCC1)N1CCN(C(=O)c2cccc(Br)c2)CC1 (stereo not drawn)
  NPYLR7 ag: -6 | NPYLR7 ag max-min: -10
compound: Cc1ccc(C(=O)Nc2ccc(N3CCN(S(=O)(=O)Cc4ccccc4)CC3)nc2)cc1
  NPYLR7 ag: 10 | NPYLR7 ag max-min: 12
compound: CSCc1nc(NC(=O)C(C)(C)NC(C)=O)ccc1Cl
  NPYLR7 ag: 1 | NPYLR7 ag max-min: 9
compound: O=C(CCCl)Nc1ccc(N2CCOCC2)cc1
  NPYLR7 ag: 10 | NPYLR7 ag max-min: 12
compound: CCOc1ccc(C2C(C(=O)OCCOc3ccccc3)=C(C)NC3=C2C(=O)CCC3)cc1 (stereo not drawn)
  NPYLR7 ag: -1 | NPYLR7 ag max-min: -6
compound: CN(CC1CCCCO1)C(=O)c1cnc(-c2ccccn2)nc1 (stereo not drawn)
  NPYLR7 ag: 16 | NPYLR7 ag max-min: 13
compound: COc1cc(C(=O)N2CCC(Cc3ccc(F)cc3)CC2)cc(OC)c1OC
  NPYLR7 ag: 0 | NPYLR7 ag max-min: -6
compound: CC(NC(=O)c1ccc(-c2cccc(Cl)c2)s1)C(C)(C)C (stereo not drawn)
  NPYLR7 ag: -2 | NPYLR7 ag max-min: 5

compound: Cc1cccc(S(=O)(=O)NC(=O)C2(C)CCN2C(=O)c2ccc(C(F)(F)F)nc2C)c1 (stereo not drawn)
  NPYLR7 ag: -2 | NPYLR7 ag max-min: 0
compound: COc1ccc(-c2nc(NC(=O)c3ccc(F)cc3F)n[nH]2)c(OC)c1
  NPYLR7 ag: -5 | NPYLR7 ag max-min: -8
compound: CN1C(=O)/C(=C/c2ccccc2OC(F)(F)F)c2ccccc21
  NPYLR7 ag: 13 | NPYLR7 ag max-min: 13
compound: COCCCN(CC(=O)N1CCc2sccc2C1c1ccc(F)cc1)C(=O)COCc1ccccc1 (stereo not drawn)
  NPYLR7 ag: 11 | NPYLR7 ag max-min: 19
compound: Cc1csc2nc(CSc3nnc(C4CC4)n3C3CC3)cc(=O)n12
  NPYLR7 ag: 4 | NPYLR7 ag max-min: 12
compound: CC(CN(C)CCC(=O)Nc1cc(N)ccc1F)c1ccccc1 (stereo not drawn)
  NPYLR7 ag: 2 | NPYLR7 ag max-min: -2
compound: Cc1nnsc1CN(C)C(=O)CCN1CCCCO1
  NPYLR7 ag: 7 | NPYLR7 ag max-min: 7
compound: COc1ccc(CC2CCN(C(=O)c3cccc(OC(C)=O)c3C)CC2)cc1
  NPYLR7 ag: -1 | NPYLR7 ag max-min: 2
compound: O=C(c1ccccc1[N+](=O)[O-])N(Cc1cccnc1)c1nc2c(Cl)cccc2s1
  NPYLR7 ag: -26 | NPYLR7 ag max-min: -14
compound: O=C(Cn1cc([N+](=O)[O-])cn1)Nc1nccs1
  NPYLR7 ag: 0 | NPYLR7 ag max-min: -3

compound: COc1ccc(C(=O)N2CCC(C(NC(=O)c3ccc(F)cc3)C(=O)N3CCOCC3)CC2)cc1 (stereo not drawn)
  NPYLR7 ag: 5 | NPYLR7 ag max-min: 2
compound: Cc1c(C(=O)NC2CC2)sc(=O)n1Cc1ccc(-c2ccccc2)cc1
  NPYLR7 ag: 8 | NPYLR7 ag max-min: 4
compound: O=C(COC(=O)C=Cc1ccc(I)o1)NC12CC3CC(CC(C3)C1)C2
  NPYLR7 ag: -3 | NPYLR7 ag max-min: -4
compound: CCOC(=O)C1=C(C)N=c2s/c(=C/c3ccc(Cl)cc3)c(=O)n2C1c1ccc(Cl)cc1 (stereo not drawn)
  NPYLR7 ag: -6 | NPYLR7 ag max-min: -11
compound: Cc1ccc(S(=O)(=O)NCc2ncc(Cl)n2C)c(C)c1
  NPYLR7 ag: 2 | NPYLR7 ag max-min: 0
compound: CCc1c(C)nn(CCNC(=O)c2cc(C(C)C)nn2C)c1C
  NPYLR7 ag: 11 | NPYLR7 ag max-min: 2
compound: COC(=O)COc1ccc2c(=O)c(-c3ccc(Cl)cc3)c(C)oc2c1
  NPYLR7 ag: -2 | NPYLR7 ag max-min: -3
compound: Cc1ccc(C)c(-n2cnnc2SCC(=O)N(C)Cc2ccccc2)c1
  NPYLR7 ag: 20 | NPYLR7 ag max-min: 8
compound: COc1cccc(CN(Cc2ccco2)Cc2ccc(C(O)(c3ccc(F)cc3)c3ccc(F)cc3)o2)c1
  NPYLR7 ag: 10 | NPYLR7 ag max-min: 16
compound: Cc1cc(N2CCN(c3ccccc3Cl)CC2)nc(SCc2ccc(C(=O)N(C)Cc3ccccc3)o2)n1
  NPYLR7 ag: -2 | NPYLR7 ag max-min: 3

compound: CC1=C(C(=O)OCCOc2ccccc2)C(c2ccc(C)s2)NC(=O)N1C (stereo not drawn)
  NPYLR7 ag: -9 | NPYLR7 ag max-min: -11
compound: O=C(c1ccc([N+](=O)[O-])o1)N(CCCN1CCOCC1)c1nc2ccc(Cl)cc2s1
  NPYLR7 ag: -2 | NPYLR7 ag max-min: -5
compound: CC(=O)Nc1cncc(-c2ccccc2N(C)C)n1
  NPYLR7 ag: 0 | NPYLR7 ag max-min: 1
compound: COc1cc(NCC2(c3ccnc(C4CC4)c3)CC2)cc(OC)c1
  NPYLR7 ag: -14 | NPYLR7 ag max-min: -15
compound: CCS(=O)(=O)c1ccc2c(c1)N(Cc1ccc(SC)cc1)C(=O)C(C)O2 (stereo not drawn)
  NPYLR7 ag: 7 | NPYLR7 ag max-min: 3
compound: Cc1ccccc1-n1cc(-c2ccnc(NC3CCOCC3)n2)cn1
  NPYLR7 ag: -2 | NPYLR7 ag max-min: -4
compound: COc1ccc2oc(=Nc3ccc(C(F)(F)F)cc3)c(-c3nc4ccccc4[nH]3)cc2c1
  NPYLR7 ag: 4 | NPYLR7 ag max-min: 13
compound: O=C(NCC(c1cccs1)N1CCCC1)c1ccc(S(=O)(=O)N2CCCCC2)cc1 (stereo not drawn)
  NPYLR7 ag: 4 | NPYLR7 ag max-min: 4
compound: COC(=O)NNS(=O)(=O)c1cc(Br)ccc1C
  NPYLR7 ag: -1 | NPYLR7 ag max-min: -4
compound: CC(=O)Nc1ccc2oc(-c3cccc(N(C)C)c3)nc2c1
  NPYLR7 ag: -9 | NPYLR7 ag max-min: -8

compound: O=C(OCC(=O)N1CCNC1=O)C1=COCCO1
  NPYLR7 ag: 0 | NPYLR7 ag max-min: 33
compound: Cc1ccc(C2(O)CCN(C(=O)COc3ccc4c(c3)OCO4)CC2)nc1
  NPYLR7 ag: 12 | NPYLR7 ag max-min: 10
compound: CNC(=O)Cc1cc(=O)[nH]c(SCC(=O)Nc2ccccc2C)n1
  NPYLR7 ag: -19 | NPYLR7 ag max-min: -25
compound: C=CCS(=O)(=O)N1CCC(c2nn(C)c(=O)n2Cc2ccccc2)CC1
  NPYLR7 ag: 1 | NPYLR7 ag max-min: 0
compound: O=c1[nH]cnc2cc(Br)c(Br)cc12
  NPYLR7 ag: 1 | NPYLR7 ag max-min: -5
compound: Cc1cc(NCCOCCO)n2c(nc3ccccc32)c1C#N
  NPYLR7 ag: 8 | NPYLR7 ag max-min: 2
compound: CCCN(CC(=O)N1CCc2sccc2C1COc1cccc(C)c1)CC(O)COCc1ccccc1 (stereo not drawn)
  NPYLR7 ag: 15 | NPYLR7 ag max-min: 10
compound: Cc1ccc(OCCSc2nc3ccccc3[nH]2)cc1
  NPYLR7 ag: 1 | NPYLR7 ag max-min: -3
compound: COc1ccc(NC(=O)N2CCSC2c2cccc(Cl)c2)cc1 (stereo not drawn)
  NPYLR7 ag: 1 | NPYLR7 ag max-min: 1
compound: COc1ccc(NC2CCCN(C(=O)CSc3nc4ccc(C)cc4[nH]3)C2)cc1 (stereo not drawn)
  NPYLR7 ag: 2 | NPYLR7 ag max-min: -4

compound: COC(=O)c1cccc(COC(=O)c2ccc(Br)o2)c1
  NPYLR7 ag: -6 | NPYLR7 ag max-min: -5
compound: Cc1noc(C)c1C=NNC(=O)CC12CC3CC(CC(C3)C1)C2
  NPYLR7 ag: 6 | NPYLR7 ag max-min: 12
compound: COc1ccc(C(=O)N2CCN(C(C(=O)N(C)Cc3ccco3)C3CCCC3)CC2)cc1OC (stereo not drawn)
  NPYLR7 ag: 10 | NPYLR7 ag max-min: 16
compound: O=C(NCCN1CCCS1(=O)=O)c1ccc(Br)cc1O
  NPYLR7 ag: -5 | NPYLR7 ag max-min: -7
compound: CNc1snc(C)c1C(=O)NCCc1ccc(Cl)cc1
  NPYLR7 ag: -2 | NPYLR7 ag max-min: -7
compound: COC(=O)CCCC(=O)N1CCN(c2nc3nccc(-c4ccc(N5CCOCC5)cc4)n3n2)CC1
  NPYLR7 ag: 5 | NPYLR7 ag max-min: 2
compound: CCCCC1CCCN1C(=O)c1cc(-c2ccncc2)n[nH]1 (stereo not drawn)
  NPYLR7 ag: 29 | NPYLR7 ag max-min: 19
compound: N#Cc1cccc(S(=O)(=O)N2CCN(C(c3ccccc3)c3ccc(Cl)cc3)CC2)c1 (stereo not drawn)
  NPYLR7 ag: 31 | NPYLR7 ag max-min: 26
compound: Cc1nc(-n2nc(-c3cccs3)cc2NC(=O)c2ccccc2Cl)[nH]c(=O)c1C
  NPYLR7 ag: -2 | NPYLR7 ag max-min: -1
compound: COCCN(Cc1ccc(OS(=O)(=O)c2cccc(C(F)(F)F)c2)cc1)C(=O)Nc1cccc(OC)c1
  NPYLR7 ag: 4 | NPYLR7 ag max-min: 13

compound: OCCN(Cc1ccccc1)Cc1nc(-c2ccc(Cl)cc2)no1
  NPYLR7 ag: 3 | NPYLR7 ag max-min: -2
compound: CCc1nc(SCC(=O)N2CCc3[nH]nc(C4CCC4)c3C2)n[nH]1
  NPYLR7 ag: 14 | NPYLR7 ag max-min: 11
compound: CC(C)CN(CC(C)C)c1nc(-c2ccc(F)cc2F)nc2ccccc12
  NPYLR7 ag: 0 | NPYLR7 ag max-min: 8
compound: CCN(CC)C(=O)C1CCCN(C(=O)CCc2c(C)nn(-c3ccc(C(C)(C)C)cc3)c2C)C1 (stereo not drawn)
  NPYLR7 ag: 1 | NPYLR7 ag max-min: -5
compound: CCN1CCN(c2c(CNC3CC3)c(C)nn2-c2cccc(F)c2)CC1
  NPYLR7 ag: -15 | NPYLR7 ag max-min: -15
compound: CN(C)C(CNc1nc(CN2CCOCC2)nc2sc3c(c12)CCC3)c1cccs1 (stereo not drawn)
  NPYLR7 ag: 2 | NPYLR7 ag max-min: 8
compound: Clc1ccc(Cn2cc(-c3nc(-c4cn5ccccc5n4)no3)nn2)cc1
  NPYLR7 ag: 10 | NPYLR7 ag max-min: -5
compound: COc1cccc2c(C)c(C(=O)N(C)Cc3cnc(C)s3)oc12
  NPYLR7 ag: 3 | NPYLR7 ag max-min: 0
compound: Cc1ccc(OC(C)C(=O)N2CCC(c3ccc(O)cc3)CC2)cc1 (stereo not drawn)
  NPYLR7 ag: -5 | NPYLR7 ag max-min: -5
compound: N#Cc1ccc(Oc2ccc(N3C(=O)C4C5C=CC(C5)C4C3=O)cc2)cc1C#N (stereo not drawn)
  NPYLR7 ag: 3 | NPYLR7 ag max-min: 3

compound: O=C(NCC1Cc2cc(Oc3ccccc3)ccc2O1)Nc1cccc(C(=O)NCC2Cc3cc(Oc4ccccc4)ccc3O2)c1 (stereo not drawn)
  NPYLR7 ag: 5 | NPYLR7 ag max-min: 1
compound: O=C(CSc1nc2ccccc2n1Cc1ccccc1)N/N=C\c1ccccc1F
  NPYLR7 ag: 3 | NPYLR7 ag max-min: 6
compound: CN1CC(=O)Nc2ccc([N+](=O)[O-])cc2C1=O
  NPYLR7 ag: 3 | NPYLR7 ag max-min: -1
compound: CN1CCCC2(CCN(c3nccc(CCC(F)(F)F)n3)C2)C1=O (stereo not drawn)
  NPYLR7 ag: -5 | NPYLR7 ag max-min: -8
compound: CNc1nn(CC(=O)Nc2c(C)cccc2C)c(N)c1-c1nc(-c2ccc(C)cc2)no1
  NPYLR7 ag: -3 | NPYLR7 ag max-min: -4
compound: COc1coc(C(=O)Nc2ccc(C)c(Cl)c2)cc1=O
  NPYLR7 ag: 10 | NPYLR7 ag max-min: 2
compound: COCC(O)CN1CC(C)CC1(C)C (stereo not drawn)
  NPYLR7 ag: 16 | NPYLR7 ag max-min: 6
compound: COc1cccc(Cn2c(=O)c(C(=O)NC(C)c3ccccc3)nn(-c3ccc(C)cc3)c2=O)c1 (stereo not drawn)
  NPYLR7 ag: 13 | NPYLR7 ag max-min: 9
